# MARV entry inh – qHTS for inhibitors of binding or entry into cells for Marburg Virus | Marburg virus pseudotyped entry inhibition, cell reporter; control for the full effect not named in the record; about a third of the inactives were read at about 46 µM | Potency, µM (titrated, usually from 37.8 µM), without a hit: top-dose activity change, negative = inhibition, hits mostly inhibitors | 300,000 tested, 1.8% active | AID 540276, 2011; active = well fitted inhibition curve with a large enough effect; inconclusive = small, poorly fitted or top-dose-only effect, or effect the other way; inactive = flat fitted curve, though single readings scatter; tested in HEK293 cells; about a fifth of its hits are not listed in these tables; further: on the % scale 0 is the no-effect control and ±100 the full control effect; luciferase read-out
# NS1 function inh – qHTS Assay for Inhibitors of Influenza NS1 Protein Function. S. cerevisiae slowed by influenza A NS1, growth recovery by OD600. Potency, µM (doses to about 46.1 µM), inactives show at the top dose activity, positive = more growth. 270,000 tested, 0.4% active; active means well fitted rising curve with a large enough effect; inconclusive means small, poorly fitted or top-dose-only effect; inactive means no such curve, though single readings can be large or run the other way; further: nearly all actives have a fitted effect of over 50% in size
#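 OD600 was taken as the measure of yeast growth restored by compound in an NS1-expressing S. cerevisiae strain. Cells had been washed out of glucose medium and diluted 1:100 into galactose -URA medium, pH 6.0.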
# SARS PLpro yeast – qHTS of Yeast-based Assay for SARS-CoV PLP; S. cerevisiae expressing SARS-CoV PLpro, growth rescue; control for the full effect not named in the record; AID 485353, 2010; Potency, µM (series often up to 32.9 µM), inactives show at the top dose activity, positive = growth rescue; 330,000 tested, 0.19% active; active means well fitted rising curve with a large enough effect; inconclusive means small, poorly fitted or top-dose-only effect; inactive means no such curve, though single readings can be large or run the other way; further: 0% is about no effect; nearly all actives have a fitted effect of over 55% in size; growth read by luminescence after 48 h
# 2A StopGo – High Throughput Screening for Foot and Mouth Disease Virus Antivirals. human cells with a luciferase reporter of 2A StopGo recoding; control for the full effect not named in the record. AID 1159524, 2015. Potency, µM (doses to about 57.9 µM), without a hit: at the highest dose signal change, negative = less light. 410,000 tested, 1.2% active; active = well fitted falling curve with a large enough effect; inconclusive = small, poorly fitted or top-dose-only effect; inactive = no such curve, though single readings can be large or run the other way; tested in HEK293T cells; further: on the % scale 0 is the no-effect control and ±100 the full control effect; nearly all actives have a fitted effect of over 45% in size; luciferase light after 4 h
# Cruzain inh noDet – qHTS Assay for Promiscuous and Specific Inhibitors of Cruzain (without detergent); 200,000 tested, 2.3% active; AID 1476, 2009; Cruzipain (Trypanosoma cruzi), P25779; purified cruzain, Z-FR-AMC fluorescence, no detergent; Potency, µM, for the others: max response, negative = inhibition, actives largely listed as inhibitors;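 further: plate controls were enzyme without inhibitor for no effect and buffer without enzyme for full effect; nearly all actives have a fitted effect of over 40% in size; top concentration of the series not given in the record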
# Target sequence (P25779 123-467 limits assumed): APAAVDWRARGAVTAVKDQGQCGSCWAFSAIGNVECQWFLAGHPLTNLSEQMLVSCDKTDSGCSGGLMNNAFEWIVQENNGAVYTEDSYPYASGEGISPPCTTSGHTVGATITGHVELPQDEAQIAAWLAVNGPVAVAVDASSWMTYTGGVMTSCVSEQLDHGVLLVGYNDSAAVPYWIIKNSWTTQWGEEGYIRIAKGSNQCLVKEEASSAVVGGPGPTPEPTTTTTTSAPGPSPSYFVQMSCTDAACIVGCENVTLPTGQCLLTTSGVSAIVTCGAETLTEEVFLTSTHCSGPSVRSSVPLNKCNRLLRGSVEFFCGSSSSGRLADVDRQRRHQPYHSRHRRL
#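 Purified cruzain at 1.5 nM, pre-incubated 15 min with compound at room temperature in 100 mM sodium acetate pH 5.5, 5 mM DTT, 0.00005% Triton X-100. Reaction started with 2 uM Z-FR-AMC; AMC fluorescence increase over 60 s gives rate.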
# Lassa entry inh – qHTS for Inhibitors of binding or entry into cells for Lassa Virus; Lassa virus pseudotype entry inhibition, cell reporter; control for the full effect not named in the record; Potency, µM (series often up to 37.9 µM), for the others: at the top dose activity change, negative = inhibition, usual class: inhibitors; 300,000 tested, 1.2% active; active means well fitted inhibition curve with a large enough effect; inconclusive means small, poorly fitted or top-dose-only effect, or effect the other way; inactive means flat fitted curve, though single readings scatter; tested in HEK293 cells; further: on the % scale 0 is the no-effect control and ±100 the full control effect; nearly all actives have a fitted effect of over 50% in size; luciferase read-out
# RE007 growth inh – qHTS Assay for Inhibitors of the HIV-1 protein Vpr; 360,000 tested, 0.21% active; S. pombe RE007 Vpr strain, BacTiter-Glo ATP luminescence, 24 h; control for the full effect not named in the record; Potency, µM (titrated, usually from 92.2 µM), without a hit: at the highest dose activity change, negative = less growth; active = well fitted falling curve with a large enough effect; inconclusive = small, poorly fitted or top-dose-only effect; inactive = no such curve, though single readings can be large or run the other way;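 further: on the % scale 0 is the no-effect control and ±100 the full control effect; nearly all actives have a fitted effect of over 50% in size; the assay follows cell death caused by Vpr and the record does not say whether a fall means rescue or toxicity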
#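 Fission yeast strain RE007, carrying one chromosomally integrated HIV-1 vpr copy, was seeded at OD 0.01 in PMG+AL medium with 23 nL pinned compound. After 24 h at 30 °C and 99% humidity, viability was read by BacTiter-Glo luminescence.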
# Cruzain Triton – qHTS Assay for Promiscuous and Specific Inhibitors of Cruzain (with detergent); purified cruzain, Z-FR-AMC fluorescence, 0.01% Triton; Potency, µM, without a hit: max response, negative = inhibition, hits mostly inhibitors; 200,000 tested, 0.43% active;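 further: plate controls were neutral wells for no effect and buffer without enzyme for full effect; nearly all actives have a fitted effect of over 40% in size; top concentration of the series not given in the record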
#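 Detergent-containing run (0.01% Triton X-100) in acetate buffer pH 5.5 with 5 mM DTT: enzyme at 1.5 nM final, 15 min compound preincubation at room temperature, then 2 uM Z-FR-AMC substrate. Activity taken as 60 s fluorescence increase at 360/450 nm.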
# * = called active by the depositor; ? = inconclusive; nt = not tested or not shown; [ ] = dose if it differs, or a comment. Unless noted, the call rests on the fitted dose curve; in most records, active means well fitted curve in the direction sought with a large enough effect; inconclusive means small, poorly fitted or top-dose-only effect, or another doubt; inactive means no such curve, though single readings can be large; an effect the other way counts as inactive or inconclusive. Potency means the concentration at half of the fitted maximal effect.
# Results follow in this order: MARV entry inh	NS1 function inh	SARS PLpro yeast	2A StopGo	Cruzain inh noDet	Lassa entry inh	RE007 growth inh	Cruzain Triton
[1] O=C(O)c1cccnc1NC1CCCC1
  ?	5.5%	2.6%	nt	1.8%	0.5%	0.3%	3.0%
[2] O=C(NCCN1CCCCC1)Nc1ccc(Br)cc1
  0.2%	-3.7%	-4.4%	6.2%	nt	13.6%	-16.8%	nt
[3] CCC(C)NC(=O)[C@@H]1CSC2c3ccccc3C(=O)N21 (stereo partly drawn)
  6.7%	5.2%	8.2%	1.7%	nt	22.7%	7.2%	nt
[4] COc1ccc(C2Nc3cccc4cccc(c34)N2)cc1
  -18.6%	-0.5%	-0.8%	17.2%	nt	-3.4%	-10.0%	nt
[5] O=C(Nc1ccc(Cl)cn1)Nc1ccccc1Cl
  ?	-6.7%	-1.8%	32.6%[activator]	?	?	-7.1%	-3.0%
[6] Cc1cc(Cl)ccc1C(=O)C1CCCN(C(=O)/C=C/c2cnn(C)c2)C1 (stereo not drawn)
  nt	-3.7%	-0.7%	-5.4%	nt	nt	6.9%	nt
[7] CCCn1c(CCC(=O)O)ccc1-c1ccc(F)cc1
  -2.7%	-30.5%	-5.7%	nt	-3.5%	2.6%	12.3%	-1.8%
[8] Cc1ccccc1NC(=O)C1CCN(C(=O)c2ccc(F)cc2)CC1
  1.0%[46.1 µM]	nt	nt	-6.9%	6.8%	14.3%[46.1 µM]	nt	-3.1%
[9] c1ccc(CCNc2nc3ccccc3n3nnnc23)cc1
  18.3%	5.4%	-4.2%	4.6%	12.6µM*	2.3%	5.1%	2.8%
[10] O=C1NCCCC1C(=O)N1CCN(C(c2ccccc2)c2ccccc2)CC1 (stereo not drawn)
  3.6%	-12.7%	-4.3%	nt	6.9%	1.8%	3.1%	1.4%
[11] Cc1c(-c2ccc(Cl)cc2)oc(=O)c2c(N)n(-c3ccccc3)nc12
  4.6%	4.8%	-1.1%	0.0%	-11.8%	-27.4%	0.9%	0.1%
[12] CCOc1cccc2c1OC1(C)CC2NC(=O)N1c1cccc(C(=O)N2CCN(c3ccccn3)CC2)c1 (stereo not drawn)
  2.0%[46.1 µM]	-19.0%	7.0%	-4.8%	nt	-4.7%[46.1 µM]	-5.0%	nt
[13] CCOc1ccc(NC(=O)Cn2c(=O)oc3cc(S(=O)(=O)NC4CCCC4)ccc32)cc1
  -3.0%[46.1 µM]	nt	nt	26.6%	-14.6%	nt	nt	-4.0%
[14] O=C(O)COc1ccc(/C=N/Nc2nc(Nc3ccccc3)nc(N3CCCCC3)n2)cc1
  0.1%[46.1 µM]	19.0%	0.2%	16.2%	nt	-8.8%[46.1 µM]	11.7%	nt
[15] Cc1nc2ccc(Br)cn2c(=O)c1Cl
  -2.5%	-10.6%	0.6%	3.98µM*	-16.1%	-4.8%	-7.2%	-4.3%
[16] O=S(=O)(c1ccc(SCc2ccc(Br)cc2)nc1)N1CCOCC1
  ?	nt	-1.0%	-23.0%	nt	0.6%	2.6%	nt
[17] CCc1nn(CC(=O)NCCC2=CCCCC2)c(=O)c2cc3cc(F)ccc3n12
  nt	8.6%	1.0%	-1.8%	nt	nt	0.8%	nt
[18] Cc1ccc(NC(=S)/N=C(\N)Nc2nc(C)c3cc(C)c(C)cc3n2)cc1C
  ?	-1.4%	0.0%	-20.1%	nt	?	11.3%	nt
[19] COc1ccc(CNC(=O)CSc2nnc3c(n2)[nH]c2ccc(OC)cc23)cc1
  ?	0.5%	2.9%	11.3%	nt	nt	-7.6%	nt
[20] CCCn1cnc2cc(NCc3ccc(Br)cc3)ccc21
  ?	-9.0%	-2.1%	0.5%	nt	?	-19.4%	nt
[21] CCOC(=O)Cn1c(C)c(C#N)c2ccccc21
  7.8%	-2.7%	2.7%	-8.3%	6.5%	8.1%	3.3%	2.0%
[22] CCn1nc(C(=O)Nc2ccc3nc(C)sc3c2)c2ccccc2c1=O
  6.7%	nt	-23.0%	-7.6%	?	-58.4%	-11.7%	-5.9%
[23] CCN1CCN(c2ncc3c(n2)CC(c2cc(OC)c(OC)c(OC)c2)CC3=O)CC1 (stereo not drawn)
  ?	-4.6%	-0.5%	?	-2.6%	-18.8%	-8.7%	4.0%
[24] COC(=O)c1ccccc1NC(=O)c1ccccc1OC
  -10.8%	-82.2%	-3.5%	-23.3%	-9.5%	-11.9%	?	-5.7%
[25] COc1ccc(C2CC(=O)Oc3c(C(CCN4CCOCC4)c4cc(OC)c(OC)c(OC)c4)c(OC)cc(OC)c32)cc1 (stereo not drawn)
  nt	-8.6%	0.2%	-19.4%	nt	nt	-11.0%	nt
[26] CCCOc1ccc(CNC(=O)CCCN2C(=O)CSc3c2c(C)nn3-c2ccccc2)cc1
  nt	nt	nt	?	?	?	nt	-8.3%
[27] Cc1ccc(NC(=O)CN(C)S(=O)(=O)c2cccc3nsnc23)cc1C
  -10.5%	-4.8%	3.6%	0.0%	-7.8%	-8.5%	4.7%	-3.5%
[28] O=C(NCCCN1CCOCC1)c1cc2ccccc2o1
  11.6%	0.5%	0.5%	nt	2.2%	5.3%	-4.0%	2.0%
[29] O=C(Nc1ccccc1)NC1CCN(Cc2nnnn2C2CCCCC2)CC1
  ?	-10.7%	20.3%	-2.9%	-1.9%	-4.0%	-13.9%	-0.8%
[30] COc1ccc(NC(=O)CSc2ccc3nnc(-c4ccccn4)n3n2)cc1OC
  nt	9.0%	2.5%	20.2%	nt	nt	-6.1%	nt

# One compound at a time (already shown).
# O=C(NCCN1CCCCC1)Nc1ccc(Br)cc1 is entered as MARV entry inh = 0.2%; NS1 function inh = -3.7%; SARS PLpro yeast = -4.4%; 2A StopGo = 6.2%; Cruzain inh noDet = nt; Lassa entry inh = 13.6%; RE007 growth inh = -16.8%; Cruzain Triton = nt
# O=C(NCCCN1CCOCC1)c1cc2ccccc2o1 is entered as MARV entry inh = 11.6%; NS1 function inh = 0.5%; SARS PLpro yeast = 0.5%; 2A StopGo = nt; Cruzain inh noDet = 2.2%; Lassa entry inh = 5.3%; RE007 growth inh = -4.0%; Cruzain Triton = 2.0%

# (next part)
# Results follow in this order: MARV entry inh	NS1 function inh	SARS PLpro yeast	2A StopGo	Cruzain inh noDet	Lassa entry inh	RE007 growth inh	Cruzain Triton
[31] CC1(C)CC(=O)C2=C(C1)c1c(ccc3ccccc13)NC2c1ccc(OCC(=O)O)cc1 (stereo not drawn)
  nt	-2.3%	12.6%	5.1%	nt	nt	1.5%	nt
[32] N=c1ccccn1Cc1ccccc1
  ?	nt	1.7%	-3.0%	nt	5.3%[46.1 µM]	-6.8%	nt
[33] CCN(CC(=O)Nc1ccc(NC(C)=O)cc1)C(=O)c1cc(C)on1
  -0.4%	nt	-0.2%	-7.9%	nt	-1.4%	-12.2%	nt
[34] Cc1cc(C)n2nc3nc(N4CCCC4)nc(-c4ccccc4)c3c2n1
  -16.5%	-41.1%	-3.3%	?	?	2.5%	-19.4%	-3.1%
[35] O=C(O)/C(=C\c1cccc([N+](=O)[O-])c1)c1ccc(S(=O)(=O)N2CCCCC2)s1
  nt	9.9%	-0.8%	-4.5%	nt	nt	9.1%	nt
[36] CC(/C=C1\SC(=S)N(C(C(=O)O)C(C)C)C1=O)=C\c1ccccc1 (stereo not drawn)
  0.9%[46.1 µM]	-1.2%	-1.1%	-3.4%	nt	7.6%[46.1 µM]	-1.3%	nt
[37] CCOCCCNC(=S)Nc1cc(OCC)c(NC(=O)c2ccco2)cc1OCC
  5.6%[46.1 µM]	2.8%	0.0%	7.4%	nt	-17.5%	1.7%	nt
[38] COc1cc(Cn2cnnn2)ccc1O
  20.5%	1.0%	2.1%	-10.8%	2.8%	5.2%	4.5%	5.3%
[39] COc1ccc(NS(=O)(=O)c2ccc(NC(C)=O)cc2)nn1
  8.7%[46.1 µM]	nt	nt	-3.2%	nt	11.7%[46.1 µM]	-3.0%	nt
[40] COC(=O)c1cn(-c2nc(C)c3c(n2)CCC3)nn1
  -5.1%[46.1 µM]	3.2%	-0.9%	24.9%	nt	0.3%	-4.1%	nt
[41] COc1cc(C2=NOC(C(=O)Nc3ccc4c(c3)OCO4)C2)cc(OC)c1OC (stereo not drawn)
  nt	-12.0%	-2.3%	28.4%	nt	nt	1.9%	nt
[42] COc1ccc(N2C(=O)CC2(/C=C/c2ccccc2OC)C(=O)NC2CCCC2)cc1 (stereo not drawn)
  -9.0%	4.4%[9.22 µM]	-30.4%	-1.0%	21.9%	-25.4%	-2.3%	-3.8%
[43] Cc1ccc(Cc2nc3ccccc3nc2SCC(=O)N2CCCCC2)cc1
  nt	nt	nt	0.2%	0.4%	-24.4%[46.1 µM]	nt	-6.1%
[44] COc1cccc(OC)c1CN1CCCC(C(=O)c2cccc(Cl)c2)C1 (stereo not drawn)
  nt	-4.3%	-1.2%	-27.6%	nt	nt	-1.8%	nt
[45] CCc1ccc(CNCCNC(=O)c2ccco2)cc1
  0.7%[46.1 µM]	nt	nt	5.0%	nt	3.8%	-12.4%	nt
[46] O=C(NC(=S)Nc1ccccn1)c1cccc([N+](=O)[O-])c1
  ?	-0.3%	0.0%	10.3%	nt	?	-15.8%	nt
[47] COc1ccc(OC)c(NC(=O)N2CCN(S(=O)(=O)c3ccc4c(ccn4C)c3)CC2)c1
  nt	nt	nt	-17.1%	0.0%	27.1%[46.1 µM]	nt	-3.9%
[48] O=C(Nc1nc2ccc(S(=O)(=O)N3CCCC3)cc2s1)C1CCCO1 (stereo not drawn)
  -10.9%	-3.3%	5.7%	34.7%[activator]	-16.4%	-4.7%	11.9%	1.4%
[49] Cc1cc2c(cc1S(=O)(=O)NCCc1ccc(Cl)cc1)OCC(=O)N2
  nt	-4.4%	?	15.5%	nt	nt	-3.9%	nt
[50] Cc1ccccc1CSc1nnc(-c2cccnc2)n1N
  ?	0.6%	-0.2%	15.9%	-10.2%	8.4%	4.0%	-1.9%
